# ClpP mod = qHTS Assay for Activators of ClpP | ATP-dependent Clp protease proteolytic subunit (Bacillus subtilis (strain 168)), P80244 | purified B. subtilis ClpP, FRET peptide cleavage, 20 min | Potency, µM (doses to about 57.5 µM), inactives show top-dose activity change, negative = active | actives 1.9% (n = 340,000) | AID 651965, 2013; active = well fitted falling curve with a large enough effect; inconclusive = small, poorly fitted or top-dose-only effect; inactive = no such curve, though single readings can be large or run the other way; further: potency means the concentration at half of the fitted maximal effect; the source files actives as falling curves though it sought activators and does not explain the sign; nearly all actives have a fitted effect of over 65% in size; many hits overshoot -100%
# Target sequence (P80244 whole entry, looked up): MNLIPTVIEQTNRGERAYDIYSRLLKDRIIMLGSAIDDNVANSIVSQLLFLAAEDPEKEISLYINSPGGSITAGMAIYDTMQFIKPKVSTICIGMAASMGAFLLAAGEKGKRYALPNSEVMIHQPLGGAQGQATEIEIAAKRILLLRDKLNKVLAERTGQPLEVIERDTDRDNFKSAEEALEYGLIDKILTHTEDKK
#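 Buffer: 100 mM Tris/HCl pH8, 100 mM KCl, 0.05% low protease BSA, 2.5% glycerol, 0.01% Tween-20. ClpP 10 microg/mL final; 20 min RT; delta FRET normalized to ADEP and DMSO controls.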
# gsp agonist = activates gsp, the McCune-Albright syndrome mutation; Potency, µM (highest dose often 76.9 µM), for inactives: at the top dose activation (cAMP increase), usual class: activators; AID 624287; actives 0.13% (n = 340,000); gsp mutant cells, cAMP HTRF, 30 min; control for the full effect not named in the record; active = well fitted activation curve with a large enough effect; inconclusive = small, poorly fitted or top-dose-only effect, or another doubt; inactive = no such curve, though single readings can be large or run the other way; cell line not stated here;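 further: phosphodiesterase inhibitor Ro 20-1724 added with compounds to block cAMP breakdown; potency means the concentration at half of the fitted maximal effect; nearly all actives have a fitted effect of over 60% in size; about a fifth of the inactives were tested at one dose only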
#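 Cells in DMEM/10% FBS with G418 were pretreated with compounds in DMSO plus […] (300 uM stock) for 30 min at 37C. cAMP was measured by HTRF (cAMP-d2 plus anti-cAMP antibody-K) after 30 min at room temperature.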
# Sfp PPTase inh = inhibitors of Bacillus subtilis Sfp phosphopantetheinyl transferase. Q9F4F7. Biochemical Sfp PPTase activity, qHTS. Potency, µM, for inactives: max response, negative = inhibition, actives largely listed as inhibitors. actives 3.5% (n = 310,000). AID 1490; active means well fitted inhibition curve with a large enough effect; inconclusive means small, poorly fitted or top-dose-only effect, or another doubt; inactive means no such curve, though single readings can be large or run the other way;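 further: the enzyme is Sfp with the accession as filed and its product quenches rhodamine fluorescence; potency means the concentration at half of the fitted maximal effect; 0% = enzyme reaction without inhibitor and -100% = no enzyme wells; top concentration of the series not given in the record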
#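 Fluorescence-quenching assay with 15 nM Sfp, 5 uM rhodamine-CoA and 12.5 uM BHQ-2-labelled ybbR peptide in pH 7.6 Hepes/MgCl2 buffer. Enzyme was pre-incubated with compound for 15 min at room temperature. Rate was taken from the 30-min fluorescence change (525/598 nm).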
# Menin-MLL FL inh = inhibitors of human menin-MLL interaction, wild-type MLL peptide. Fluorescence polarization, fluorescein-MLL peptide displacement from menin. FP activity change, % at 61.4 µM. AID 1766. 290,000 tested, under 10 active; inconclusive = falling polarisation curve, or a change in total fluorescence; inactive = total fluorescence flat and polarisation flat or rising; no compound was filed as active; the % refers to the polarisation; negative = inhibition;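 further: % of control where 0% means no effect; inhibitors lower the polarisation; unlabelled MLL peptide was the positive control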
# D2 PAM = human D2 receptor positive allosteric modulation. P14416. DiscoveRx D2 beta-arrestin cells, luminescence, 90 min; 100% = 57 uM dopamine signal. potentiation, % (no concentration beside the values). actives 0.23% (n = 360,000); active = potentiation of 50% or more; inconclusive = 30% to 50%; inactive = 30% or less;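 further: compound concentration not given in the record; tested on top of an EC20 dose of dopamine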
#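 PathHunter D2 cells, attached overnight at 37 deg C, received compound in DMSO plus dopamine at EC20 (50 nM final) for 90 min at 37 deg C. Beta-arrestin recruitment was read as luminescence after 1 h with detection reagent at ambient temperature.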
# TRPV1 PAM = enhances activation of the human vanilloid receptor TRPV1. TRPV1-expressing cells, Fluo-8 calcium influx, capsaicin EC20 potentiation; host cell line not named in the record; control for the full effect not named in the record. potentiation, % at 8.33 µM. actives 0.02% (n = 320,000). AID 540277; active means potentiation above 80%; inconclusive means 30% to 80%; inactive means below 30%; further: 0% is about no effect
# Target sequence (Q8NER1 whole entry, looked up): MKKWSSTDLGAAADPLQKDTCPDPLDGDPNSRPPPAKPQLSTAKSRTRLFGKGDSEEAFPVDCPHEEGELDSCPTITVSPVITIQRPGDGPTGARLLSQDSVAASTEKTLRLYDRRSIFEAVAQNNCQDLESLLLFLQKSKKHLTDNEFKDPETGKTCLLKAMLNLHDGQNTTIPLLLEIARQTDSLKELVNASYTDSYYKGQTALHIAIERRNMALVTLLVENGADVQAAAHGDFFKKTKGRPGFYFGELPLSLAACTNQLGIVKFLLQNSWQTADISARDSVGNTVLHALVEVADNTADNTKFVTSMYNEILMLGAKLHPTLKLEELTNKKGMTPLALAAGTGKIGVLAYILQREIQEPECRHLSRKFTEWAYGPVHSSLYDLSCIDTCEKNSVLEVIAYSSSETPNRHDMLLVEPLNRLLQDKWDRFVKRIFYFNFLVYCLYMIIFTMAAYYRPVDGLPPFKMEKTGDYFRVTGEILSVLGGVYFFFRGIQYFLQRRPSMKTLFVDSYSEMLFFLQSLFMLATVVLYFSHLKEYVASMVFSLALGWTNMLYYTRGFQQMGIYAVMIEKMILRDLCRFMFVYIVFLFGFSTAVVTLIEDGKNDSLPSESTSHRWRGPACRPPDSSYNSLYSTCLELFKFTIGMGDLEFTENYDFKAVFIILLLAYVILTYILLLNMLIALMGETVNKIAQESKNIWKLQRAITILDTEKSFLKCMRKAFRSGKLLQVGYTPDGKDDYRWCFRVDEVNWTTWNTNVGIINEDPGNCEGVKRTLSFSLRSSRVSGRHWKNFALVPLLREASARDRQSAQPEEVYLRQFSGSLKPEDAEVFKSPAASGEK
#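 Fluo-8 calcium influx in TRPV1-expressing cells, kinetic read (ex 480/em 520 nm). Compound added and read 3 min for agonist activity, followed by capsaicin at EC20 final and 2 min further read for enhancement.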
# gsp antagonist = antagonists of gsp mutant (McCune-Albright syndrome); Potency, µM (highest dose often 76.9 µM), inactives show at the top dose activity change, negative = inhibition, hits mostly inhibitors; gsp-mutant cells, cAMP HTRF, 30 min; control for the full effect not named in the record; actives 0.4% (n = 340,000); active = falling curve of any shape with a large fitted effect; inconclusive = falling curve, mostly with a smaller effect; inactive = flat or rising curve; cell line not stated here;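 further: intracellular cAMP measured with PDE inhibitor Ro 20-1724 present during compound exposure; potency means the concentration at half of the fitted maximal effect; on the % scale 0 is the no-effect control and ±100 the full control effect; nearly all actives have a fitted effect of over 65% in size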
#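 G418-selected cells were plated in DMEM/10% FBS for 16-24 h at 37C, then treated with compounds plus the PDE inhibitor […] (300 uM solution added) for 30 min at 37C. Intracellular cAMP was measured by HTRF after 30 min lysis at room temperature.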
# Numbers without * were called inactive; ? = inconclusive; nt = no result given; [ ] = dose if it differs, or a comment.
SMILES,ClpP mod,gsp agonist,Sfp PPTase inh,Menin-MLL FL inh,D2 PAM,TRPV1 PAM,gsp antagonist
COCC1CCN(C(=O)c2cc(COc3cncc(Cl)c3)on2)C1 (stereo not given),-4.1%,?,7%,-11,-4,-20,2%
C=CCN(CC=C)C(=O)c1ccncc1,-0.1%,-16%,6%,-1.9,-2,5,7%
C[C@]12c3[nH]c4cc(-c5ccco5)ccc4c3CCN1C(=O)[C@@H](CC(=O)NCCCn1ccnc1)C[C@@H]2C(=O)N1CCCCC1,3.9%,nt,nt,nt,-6,nt,-5%
Cc1ccc(CNS(=O)(=O)c2c(C)[nH]c(C)c2C(=O)N2CCCCC2)o1,0.4%,-2%,3%,-2.1,1,1,15%
CCOc1ccc2nc(NC(=O)CSc3nnc(-c4ccncc4)n3CC3CCCO3)sc2c1 (stereo not given),-0.4%,16%,21%,5.0,25,-3,-6%
CCOc1ccccc1CN1CCNC(=O)C1CC(=O)NCCCn1cccn1 (stereo not given),-0.5%,-19%,4%,nt,1,5,7%
O=C(NC1CC1)c1scc2c1OCCO2,0.3%,26%,21%,-1.6,6,11,7%
N#Cc1c(N2CCN(c3ccc([N+](=O)[O-])cc3)CC2)[n+](=O)c2ccc(Cl)cc2n1[O-],2.4%,6%,nt,nt,29,nt,-11%
NNC(=O)C(=O)/C=C1\NC2(CCCC2)Cc2ccccc21,nt,-4%,5%,0.5,-3,-8,-4%
CN(C(=O)CN1CCN(c2ccc([N+](=O)[O-])cn2)CC1)c1ccccc1,1.1%,?,6%,-2.5,1,20,-8%
O=c1[nH]c2ccccc2nc1-c1ccc(Cl)cc1,nt,-5%[15.4 µM],1%,1.0,-11,2,7%
Cc1cc(OCC(=O)OCC(=O)N2c3ccccc3NC(=O)C2(C)C)ccc1Cl,-0.8%,-35%[inhibitor],nt,nt,-3,3,-2%
Nc1ccc(C(=O)OCC(=O)Nc2cccc(S(=O)(=O)NC3=NCCCCC3)c2)cc1[N+](=O)[O-],-0.2%,-3%[15.4 µM],nt,nt,-27,nt,-1%
CCc1nnc(NC(=O)/C=C/c2cccs2)s1,-0.3%,-2%[15.4 µM],-3%,-4.1,-21,-10,-7%
COc1ccc(/C=C/C(=O)NC2CC3CCC2C3)cc1 (stereo not given),-4.7%,-11%,15%,-2.6,0,-3,-7%
O=C(CSc1nnc(-c2ccc(O)cc2)o1)Nc1ccc2c(c1)OCCO2,-1.5%,?,6%,-2.7,-4,5,8%
S=C(NCc1ccc2c(c1)OCO2)Nc1ccc(-c2nc3ccccc3[nH]2)cc1,?,-28%,5%,0.7,26,26,-28%
Cc1ccc(CSC2=NCCN2C(=O)c2ccc([N+](=O)[O-])cc2)cc1,0.9%,2%[15.4 µM],9%,2.4,-20,-3,-2%
COc1ccc(CC2(CO)CCN(S(=O)(=O)c3c(C)nn(C)c3Cl)CC2)cc1,-1.8%,1%,-12%,-1.0,2,26,5%
COCCN(C(=O)CSc1nnc(-c2ccccc2OC)o1)c1c(N)n(CC(C)C)c(=O)[nH]c1=O,-6.6%,-6%,nt,nt,3,5,-8%
CCc1ccc([C@@H]2C[C@H]3[C@@H](CN2S(=O)(=O)c2ccc(C)cc2)C(=O)C[C@@H](c2ccc(C)cc2)N3S(=O)(=O)c2ccc(C)cc2)cc1,0.7%,-2%,nt,nt,1,nt,nt
CCC1CCCCN1C(=O)Cn1c(C(=O)OC)cc2sc(Cl)cc21 (stereo not given),1.5%,-21%,8%,-4.5,-7,-34,3%
Cc1ccc(CNC(=O)c2ccc(N3CCC4(CC3)CC(c3cccc(Br)c3)=NO4)c(NC(=O)c3ccc(Br)cc3)c2)cc1,-5.3%,nt,nt,nt,-18,nt,8%
Cc1cccc(Oc2ccc(N)cc2)c1,0.1%,2%,15%,0.6,-5,1,-2%
O=C(Nc1ccccc1Cl)c1cc(S(=O)(=O)N2CCOCC2)cs1,0.4%,0%,4%,2.2,-22,-4,-4%
CCOC(=O)C1=C(COC(=O)CCCOc2ccccc2)NC(=O)NC1C (stereo not given),-27%,7%[15.4 µM],nt,nt,-15,26,1%
O=C(CN1CCN(c2cccc(Cl)c2)CC1)Nc1ccc(S(=O)(=O)N2CCOCC2)cc1,-0.6%,0%,13%,nt,-20,-9,-12%
Cn1c(NCC2CCCO2)nc2c1c(=O)n(Cc1ccccc1)c(=O)n2C (stereo not given),1.2%,18%,3%,3.3,-12,7,-2%
Cc1c(NC(=O)c2cc(-c3cccs3)nc3ccccc23)c(=O)n(-c2ccccc2)n1C,nt,-14%[15.4 µM],20%,-0.2,2,2,-7%
O=C(O)CCC(=O)c1ccc2c(c1)OCCCO2,-13%,12%,8%,-1.9,5,28,9%

# 3 entries already listed, ordered by the number in gsp agonist, rising.
mol	gsp agonist
COCCN(C(=O)CSc1nnc(-c2ccccc2OC)o1)c1c(N)n(CC(C)C)c(=O)[nH]c1=O	-6%
O=C(CN1CCN(c2cccc(Cl)c2)CC1)Nc1ccc(S(=O)(=O)N2CCOCC2)cc1	0%
Cn1c(NCC2CCCO2)nc2c1c(=O)n(Cc1ccccc1)c(=O)n2C (stereo not given)	18%

# (listing goes on)
SMILES,ClpP mod,gsp agonist,Sfp PPTase inh,Menin-MLL FL inh,D2 PAM,TRPV1 PAM,gsp antagonist
O=C(Nc1ccc(F)cc1F)c1ccc(S(=O)(=O)NCc2ccco2)cc1,-2.0%,26%,nt,nt,-3,nt,4%
O=C(O)CCSc1ccccn1,nt,-19%,50µM*,3.2,-3,1,-3%
O=C(NCc1ccco1)c1ccc(Cn2c(=O)c3sccc3n(Cc3ccc(F)cc3)c2=O)cc1,-4.7%,-2%,9%,3.9,-9,nt,-3%
CN(Cc1ccccc1F)C(=O)c1ccc(NC(=O)CC2SC(N3CCCCC3)=NC2=O)cc1 (stereo not given),3.4%,?,nt,nt,11,nt,-6%
NC(=S)Nc1ccccc1Br,-1.2%,-10%[15.4 µM],-16%,0.2,4,-7,17%
Cc1ccc(C(=O)OCC(=O)Nc2ccc3[nH]c(=O)[nH]c3c2)cc1[N+](=O)[O-],nt,0%[15.4 µM],12%,5.2,0,3,3%
COc1ccc(CNC(=O)CCN2C(=O)c3ccccc3C2=O)cc1OC,nt,14%,10%,1.0,-5,6,10%
O=C(CCCn1nnc2ccccc2c1=O)N[C@@H](Cc1ccccc1)C(=O)O,nt,-3%[15.4 µM],17%,1.7,-1,nt,8%
CCC(Sc1nncn1C)C(=O)Nc1ccccc1OC (stereo not given),-0.1%,-16%,0%,8.4,-5,15,11%
CCc1n[nH]c(=S)n1/N=C/c1cccc2ccccc12,3.8%,-3%[15.4 µM],-17%,-2.6,-13,-4,-5%
O=C(Nc1cccc(NC(=O)c2ccco2)c1)c1ccc2c(c1)OCO2,-2.5%,?,15%,-1.1,3,-2,?
Nc1ccc(S(=O)(=O)NN=CC=Cc2ccccc2[N+](=O)[O-])cc1,nt,-30%,nt,nt,-15,nt,-7%
Cc1cc(NC(=O)COc2ccc(Cl)cc2Cl)n(CCC#N)n1,0.9%,4%,15%,-3.1,-2,17,-1%
C[C@H](O)C#Cc1cnc2c(c1)C(=O)N([C@H](C)CO)C[C@@H](C)[C@H](CN(C)C(=O)Nc1ccc(C(F)(F)F)cc1)O2,0.1%,-34%[inhibitor],nt,nt,-4,nt,nt
COc1ccc(CN(C)S(=O)(=O)c2nnc(NC(=O)c3cccc(OC)c3)s2)cc1,-6.8%,?,10%,-2.9,0,12,-4%

# Reprinted at random: 7 compounds from above, in no set order.
SMILES,ClpP mod,gsp agonist,Sfp PPTase inh,Menin-MLL FL inh,D2 PAM,TRPV1 PAM,gsp antagonist
O=C(NCc1ccco1)c1ccc(Cn2c(=O)c3sccc3n(Cc3ccc(F)cc3)c2=O)cc1,-4.7%,-2%,9%,3.9,-9,nt,-3%
O=C(Nc1ccccc1Cl)c1cc(S(=O)(=O)N2CCOCC2)cs1,0.4%,0%,4%,2.2,-22,-4,-4%
Nc1ccc(S(=O)(=O)NN=CC=Cc2ccccc2[N+](=O)[O-])cc1,nt,-30%,nt,nt,-15,nt,-7%
Cc1ccc(C(=O)OCC(=O)Nc2ccc3[nH]c(=O)[nH]c3c2)cc1[N+](=O)[O-],nt,0%[15.4 µM],12%,5.2,0,3,3%
O=C(CN1CCN(c2cccc(Cl)c2)CC1)Nc1ccc(S(=O)(=O)N2CCOCC2)cc1,-0.6%,0%,13%,nt,-20,-9,-12%
COCC1CCN(C(=O)c2cc(COc3cncc(Cl)c3)on2)C1 (stereo not given),-4.1%,?,7%,-11,-4,-20,2%
COc1ccc(CC2(CO)CCN(S(=O)(=O)c3c(C)nn(C)c3Cl)CC2)cc1,-1.8%,1%,-12%,-1.0,2,26,5%

# (continued)
SMILES,ClpP mod,gsp agonist,Sfp PPTase inh,Menin-MLL FL inh,D2 PAM,TRPV1 PAM,gsp antagonist
COc1ccc2[nH]c3c(c2c1)CCN1C(=O)C(CC(=O)NCc2ccc(OC)c(OC)c2)C[C@H](C(=O)N2CCOCC2)[C@@]31C (stereo not given in full),0.5%,nt,nt,nt,-3,nt,-1%
Cc1ccc(C(C)C)cc1OCC(=O)N/N=C/c1ccc2c(c1)OCCO2,0.6%,1%[15.4 µM],-15%,1.9,-7,-2,-12%
CCOCC(=O)OCC(=O)NC12CC3CC(CC(C3)C1)C2,-0.7%,8%,20%,2.5,-5,-6,15%
COc1ccc(NC(=O)CCCN2C(=O)CN(C)C2=O)cc1Cl,1.3%,-2%,nt,nt,7,-4,5%
COc1ccc(OC)c(-c2cnc(OC(C)(C)C)nc2OC(C)(C)C)c1,-2.8%,-116%[inhibitor],8%,1.1,-9,-8,5%
CC1(C)Nc2ccccc2C(=O)N1NC(=O)c1ccccc1,-23%,-19%,14%,-2.6,12,-7,13%
